Compound activity: PubChem, Broad Institute
UUG fidelity: modulators of start codon recognition fidelity in yeast; S. cerevisiae UUG-firefly luciferase reporter, luminescence/redox ratio; activity score, % at 18.7 µM; 350,000 tested, 0.13% active;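 active = replicate mean at a twofold rise or more, about +100% in these data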;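 also: firefly luciferase made from a UUG start codon reports start codon fidelity; reporter light over untreated wells divided by growth signal over untreated wells; some hits fall short of that in this replicate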
HIV Env fusion: blocks HIV Env-driven cell-cell fusion; AID 651610; inhibition, % at 12.3 µM; 360,000 tested, 1.1% active; HeLa-JRFL Env/CEM21 cell fusion, luciferase;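 active = mean replicate inhibition score of at least 50 and every replicate individually at or above 50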;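 also: 0% = plate neutral controls and 100% = maraviroc near 300 nM; one replicate is shown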
An asterisk follows results filed as active; [ ] = dose if it differs, or a comment. Not all compounds are listed. The share of hits here may be higher or lower than overall.

SMILES | UUG fidelity | HIV Env fusion
CC(C)CC#Cc1ccc2c(c1)O[C@H](CN(C)Cc1ccc(C(=O)O)cc1)[C@@H](C)CN([C@H](C)CO)S2(=O)=O | 4 | 15[16.7 µM]
C[C@H](CO)N1C[C@H](C)[C@H](CN(C)S(=O)(=O)c2ccc(F)cc2)Oc2ncc(-c3cccc(F)c3)cc2C1=O | -1 | 13[16.7 µM]
O=C(C[C@@H]1CC[C@@H](NC(=O)C2CCC2)[C@@H](CO)O1)Nc1nccs1 | -22 | -1[16.7 µM]
COc1ccc(CN(C)C[C@H]2Oc3ccc(NS(=O)(=O)c4c(C)noc4C)cc3C(=O)N([C@H](C)CO)C[C@@H]2C)cc1 | -9 | 2[16.7 µM]
C[C@@H]1CN([C@@H](C)CO)C(=O)c2cc(C#CC3(O)CCCC3)cnc2O[C@H]1CN(C)C(=O)Cc1ccncc1 | -6 | -6[16.7 µM]
O=C(N[C@H]1C=C[C@@H](CC(=O)N2CCOCC2)O[C@H]1CO)c1ccc2c(c1)OCO2 | -8 | 0[16.7 µM]
Cc1noc(C)c1S(=O)(=O)N(C)C[C@@H]1Oc2ccc(NS(=O)(=O)c3cccs3)cc2CC(=O)N([C@@H](C)CO)C[C@H]1C | 45 | 2[16.7 µM]
CN(C)C(=O)C[C@H]1C[C@H]2c3cc(NC(=O)Nc4ccccc4F)ccc3O[C@H]2[C@H](CO)O1 | -1 | -10[16.7 µM]
C[C@@H]1CN([C@@H](C)CO)C(=O)c2cc(NC(=O)CCC(F)(F)F)ccc2O[C@@H](C)CCCCO[C@H]1CN(C)S(=O)(=O)c1cccs1 | 23 | -13[16.7 µM]
CNC[C@H]1Oc2ccc(NC(=O)Nc3ccc(OC)cc3)cc2CC(=O)N([C@@H](C)CO)C[C@H]1C | 26 | -4[16.7 µM]
C[C@@H]1CN([C@H](C)CO)C(=O)c2cc(NS(=O)(=O)c3cccs3)ccc2O[C@@H](C)CCCCO[C@@H]1CN(C)S(=O)(=O)c1cn(C)cn1 | 7 | 2[16.7 µM]
CO[C@H]1CN(C)C(=O)c2ccc(NC(=O)c3ccc(Oc4ccccc4)cc3)cc2OC[C@@H](C)NC[C@H]1C | -3 | 8[16.7 µM]
C[C@@H]1CCCCO[C@H](CN(C)Cc2ccc3c(c2)OCO3)[C@H](C)CN([C@H](C)CO)C(=O)c2cc(NS(=O)(=O)c3cn(C)cn3)ccc2O1 | 3 | -13[16.7 µM]
O=C(NCC[C@H]1CC[C@H](NC(=O)C2CCOCC2)[C@@H](CO)O1)Nc1ccc(Cl)cc1 | -5 | -2[16.7 µM]
C[C@H]1CN([C@@H](C)CO)C(=O)c2cc(NS(=O)(=O)c3ccc(F)cc3)ccc2O[C@@H]1CN(C)C(=O)Nc1ccc(C(F)(F)F)cc1 | 2 | -9[16.7 µM]
C[C@H](CO)N1C[C@H](C)[C@H](CN(C)C(=O)c2ccncc2)OCCCC[C@H](C)Oc2ccc(NS(C)(=O)=O)cc2C1=O | -3 | 1[16.7 µM]
CNC[C@@H]1OCCCC[C@@H](C)Oc2ccc(NC(=O)Nc3ccc4c(c3)OCO4)cc2C(=O)N([C@H](C)CO)C[C@@H]1C | -1 | -8[16.7 µM]
CO[C@@H]1CN(C)C(=O)c2ccc(NC(=O)Nc3ccccc3)cc2OC[C@H](C)N(C(=O)CC2CC2)C[C@H]1C | 15 | 10[16.7 µM]
O=C(C[C@H]1CC[C@H](NC(=O)Nc2ccccc2)[C@@H](CO)O1)NCc1cccc(F)c1 | -4 | 6[16.7 µM]
COc1ccc(-c2ccc([C@@H]3[C@H](C#N)N(C(=O)NC(C)C)[C@H]3CO)cc2)cc1 | -12 | -2[16.7 µM]
C[C@@H]1CN([C@H](C)CO)C(=O)c2cc(C#Cc3ccccc3)cnc2O[C@H]1CN(C)S(=O)(=O)c1ccccc1F | 14 | 41[16.7 µM]
C[C@H](CO)N1C[C@H](C)[C@H](CN(C)C(=O)Nc2ccc3c(c2)OCO3)Oc2ccc(NS(=O)(=O)c3cn(C)cn3)cc2CC1=O | 1 | -4[16.7 µM]
C[C@@H]1CN([C@H](C)CO)C(=O)c2cc(NC(=O)Nc3ccc(F)cc3)ccc2O[C@@H](C)CCCCO[C@@H]1CN(C)Cc1ccc(C(F)(F)F)cc1 | 9 | 57*[16.7 µM]
C[C@@H]1CN([C@@H](C)CO)C(=O)c2cc(C#C[C@@H](C)O)cnc2O[C@@H]1CN(C)Cc1ccc(-c2ccccc2)cc1 | 6 | -6[16.7 µM]
C[C@H]1CN([C@@H](C)CO)S(=O)(=O)c2ccc(-c3ccccc3F)cc2O[C@@H]1CN(C)C(=O)C1CC1 | 8 | 20[16.7 µM]
Cc1noc(C)c1NC(=O)N[C@@H]1C=C[C@H](CC(=O)NCc2ccc(Cl)c(Cl)c2)O[C@H]1CO | -4 | -12[16.7 µM]
C[C@H]1CN([C@@H](C)CO)C(=O)c2cccc(NS(=O)(=O)c3ccc(Cl)cc3)c2O[C@H]1CN(C)Cc1ccc(Cl)c(Cl)c1 | -6 | -29[16.7 µM]
O=C(NCC[C@H]1CC[C@H](NS(=O)(=O)c2cccc(F)c2)[C@H](CO)O1)c1cnccn1 | 113* | -14[16.7 µM]
Cc1noc(C)c1NC(=O)N(C)C[C@@H]1Oc2ccc(NS(=O)(=O)c3ccc(F)cc3)cc2CC(=O)N([C@H](C)CO)C[C@@H]1C | -4 | -7[16.7 µM]
C[C@H](O)C#Cc1cnc2c(c1)C(=O)N([C@H](C)CO)C[C@H](C)[C@H](CN(C)C(=O)Cc1ccccn1)O2 | 13 | 1[16.7 µM]
CN1CCN(C(=O)C[C@H]2C[C@H]3c4cc(NC(=O)NC5CCCC5)ccc4O[C@H]3[C@@H](CO)O2)CC1 | -7 | -12[16.7 µM]
Cc1noc(C)c1S(=O)(=O)N(C)C[C@H]1OCCCC[C@@H](C)Oc2ccc(NC(=O)C3CCCCC3)cc2C(=O)N([C@@H](C)CO)C[C@@H]1C | 18 | -29[16.7 µM]
C[C@@H]1CN([C@@H](C)CO)C(=O)c2cc(C#CCN(C)C)cnc2O[C@@H]1CN(C)Cc1ccc(C(=O)O)cc1 | 16 | 20[16.7 µM]
C[C@@H]1CN([C@H](C)CO)C(=O)c2cc(-c3ccc(F)cc3)cnc2O[C@@H]1CN(C)C(=O)CN(C)C | 1 | -24[16.7 µM]
COc1ccc(CN(C)C[C@H]2OCCCC[C@H](C)Oc3ccc(NC(=O)NC4CCCCC4)cc3C(=O)N([C@H](C)CO)C[C@@H]2C)cc1 | 15 | -31[16.7 µM]
COCC(=O)N(C)C[C@@H]1Oc2cc(C#CC(C)C)ccc2S(=O)(=O)N([C@H](C)CO)C[C@H]1C | 3 | -35[16.7 µM]
COc1ccccc1NC(=O)N[C@H]1CC[C@H](CCNC(=O)Cc2ccccn2)O[C@H]1CO | 4 | 0[16.7 µM]
Cc1noc(C)c1S(=O)(=O)Nc1ccc2c(c1)C(=O)N([C@H](C)CO)C[C@@H](C)[C@H](CN(C)Cc1ccccc1)OCCCC[C@H](C)O2 | 40 | -43[16.7 µM]
NC(=O)NCC#Cc1ccc2c(c1)[C@]1(C(=O)N2)[C@H](C(=O)O)[C@H]2C(=O)O[C@H](c3ccccc3)[C@H](c3ccccc3)N2[C@@H]1c1ccccc1OCCO | 26 | -8[16.7 µM]
C[C@@H]1CN([C@@H](C)CO)C(=O)c2cc(C#CC3CC3)cnc2O[C@@H]1CN(C)C(=O)Nc1ccc(F)cc1 | 23 | 6[16.7 µM]
Cc1ccc(S(=O)(=O)Nc2ccc3c(c2)C(=O)N([C@H](C)CO)C[C@H](C)[C@@H](CN(C)C(=O)CCC(F)(F)F)OCCCC[C@H](C)O3)cc1 | 6 | -158[16.7 µM]
CO[C@H]1CN(C)C(=O)c2cc(NC(=O)c3cnccn3)ccc2OC[C@@H](C)N(C(=O)C2CC2)C[C@@H]1C | -3 | 3[16.7 µM]
C[C@@H]1CN([C@H](C)CO)C(=O)Cc2cc(NS(=O)(=O)c3cccs3)ccc2O[C@@H]1CN(C)Cc1ccc2c(c1)OCO2 | 7 | -39[16.7 µM]
C[C@H]1CN([C@@H](C)CO)C(=O)Cc2cc(NC(=O)C3CCCCC3)ccc2O[C@@H]1CN(C)C(=O)Nc1ccccc1 | 1 | 6[16.7 µM]
COc1ccc(S(=O)(=O)Nc2ccc3c(c2)C(=O)N([C@@H](C)CO)C[C@H](C)[C@H](CN(C)S(=O)(=O)c2cccs2)OCCCC[C@H](C)O3)cc1 | 10 | 27[16.7 µM]
N#C[C@H]1[C@H](c2ccc(-c3cccc(F)c3)cc2)[C@H](CO)N1S(=O)(=O)c1cccc(F)c1 | -16 | 4[16.7 µM]
CC(C)C#Cc1ccc2c(c1)O[C@@H](CN(C)C(=O)Nc1ccccc1)[C@@H](C)CN([C@H](C)CO)S2(=O)=O | -1 | -9[16.7 µM]
O=C(CCN1CCCCC1)NCC[C@@H]1CC[C@H](NC(=O)c2ccc(F)cc2)[C@H](CO)O1 | 8 | 12[16.7 µM]
C[C@H]1CCCCO[C@H](CN(C)Cc2ccncc2)[C@@H](C)CN([C@@H](C)CO)C(=O)c2cc(NC(=O)Nc3ccc(C(F)(F)F)cc3)ccc2O1 | 0 | 13[16.7 µM]
C[C@@H]1CN([C@H](C)CO)C(=O)c2cc(C#Cc3ccc(F)cc3)cnc2O[C@H]1CN(C)Cc1ccccn1 | -3 | -13[16.7 µM]
COCC(=O)N1[C@H](C#N)[C@H](c2ccccc2)[C@@H]1CO | 0 | -24[16.7 µM]
C[C@H](CO)N1C[C@H](C)[C@H](CN(C)C(=O)Nc2ccc(C(F)(F)F)cc2)Oc2ccc(NS(C)(=O)=O)cc2C1=O | -1 | 17[16.7 µM]
C[C@H](CO)N1C[C@H](C)[C@@H](CN(C)Cc2ccccn2)Oc2cc(-c3cccnc3)ccc2S1(=O)=O | 16 | -16[16.7 µM]
COc1ccc(S(=O)(=O)N(C)C[C@H]2Oc3cc(C4=CCCC4)ccc3S(=O)(=O)N([C@H](C)CO)C[C@H]2C)cc1 | 8 | 48[16.7 µM]
C[C@H](CO)N1C[C@H](C)[C@H](CN(C)S(=O)(=O)c2ccc(Cl)cc2)OCCCC[C@H](C)Oc2ccc(NC(=O)C3CCCCC3)cc2C1=O | 2 | -5[16.7 µM]
CC(C)NC(=O)N(C)C[C@@H]1Oc2cc(C#CCN(C)C)ccc2S(=O)(=O)N([C@@H](C)CO)C[C@H]1C | 3 | -22[16.7 µM]
COCCCNC(=O)[C@]1(Cc2ccccc2CN=[N+]=[N-])N=C(c2ccc(OCCCO)cc2)O[C@@H]1c1ccccc1 | 2 | 10[16.7 µM]
C[C@@H](NC(=O)C[C@H]1C=C[C@H](NC(=O)C2CC2)[C@@H](CO)O1)c1ccccc1 | -2 | -6[16.7 µM]
COc1ccc(S(=O)(=O)N(C)C[C@@H]2OCCCC[C@H](C)Oc3ccc(NC(=O)NC4CCCCC4)cc3C(=O)N([C@@H](C)CO)C[C@H]2C)cc1 | -2 | -7[16.7 µM]
C[C@@H]1CN([C@@H](C)CO)S(=O)(=O)c2ccc(Br)cc2O[C@H]1CN(C)Cc1ccccc1 | -6 | 39[16.7 µM]

(cont.)
SMILES | UUG fidelity | HIV Env fusion
COc1ccc(CN(C)C[C@@H]2OCCCC[C@@H](C)Oc3ccc(NS(=O)(=O)c4ccccc4)cc3C(=O)N([C@H](C)CO)C[C@H]2C)cc1 | 26 | 3[16.7 µM]
C[C@H](CO)N1C[C@H](C)[C@@H](CN(C)CC2CC2)Oc2ccc(NC(=O)Cc3cn(C)c4ccccc34)cc2CC1=O | 5 | 4[16.7 µM]
Cc1noc(C)c1S(=O)(=O)Nc1ccc2c(c1)CC(=O)N([C@H](C)CO)C[C@H](C)[C@H](CN(C)C(=O)Nc1ccc(F)cc1)O2 | 9 | 4[16.7 µM]
C[C@@H]1CN([C@@H](C)CO)C(=O)Cc2cc(N(C)C)ccc2O[C@H]1CN(C)CC1CC1 | -5 | -13[16.7 µM]
CC(C)NC(=O)Nc1ccc2c(c1)C(=O)N([C@H](C)CO)C[C@@H](C)[C@H](CN(C)C(=O)Nc1ccc(C(F)(F)F)cc1)OCCCC[C@H](C)O2 | -4 | 75*[16.7 µM]
C[C@H]1CN([C@@H](C)CO)C(=O)c2cccc(NC(=O)Nc3ccc4c(c3)OCO4)c2O[C@@H]1CN(C)C(=O)Nc1ccccc1 | 16 | -4[16.7 µM]
CCc1cnc(N2[C@H](C#N)[C@@H](c3ccccc3)[C@@H]2CO)s1 | 21 | 13[16.7 µM]
CC(C)NC(=O)Nc1ccc2c(c1)CC(=O)N([C@H](C)CO)C[C@H](C)[C@@H](CN(C)C(=O)Nc1ccccc1)O2 | 11 | 14[16.7 µM]
O=C1O[C@H](c2ccccc2)[C@H](c2ccccc2)N2[C@H]1[C@@H](C(=O)N1CCCCCCC1)[C@]1(C(=O)Nc3ccc(C#CCCO)cc31)[C@H]2c1ccc(O)cc1 | 4 | -15[16.7 µM]

An excerpt from above in order of formula weight, high to low:
SMILES | UUG fidelity | HIV Env fusion
O=C1O[C@H](c2ccccc2)[C@H](c2ccccc2)N2[C@H]1[C@@H](C(=O)N1CCCCCCC1)[C@]1(C(=O)Nc3ccc(C#CCCO)cc31)[C@H]2c1ccc(O)cc1 | 4 | -15[16.7 µM]
C[C@@H]1CN([C@H](C)CO)C(=O)c2cc(NC(=O)Nc3ccc(F)cc3)ccc2O[C@@H](C)CCCCO[C@@H]1CN(C)Cc1ccc(C(F)(F)F)cc1 | 9 | 57*[16.7 µM]
C[C@@H]1CCCCO[C@H](CN(C)Cc2ccc3c(c2)OCO3)[C@H](C)CN([C@H](C)CO)C(=O)c2cc(NS(=O)(=O)c3cn(C)cn3)ccc2O1 | 3 | -13[16.7 µM]
CNC[C@@H]1OCCCC[C@@H](C)Oc2ccc(NC(=O)Nc3ccc4c(c3)OCO4)cc2C(=O)N([C@H](C)CO)C[C@@H]1C | -1 | -8[16.7 µM]
C[C@H](CO)N1C[C@H](C)[C@H](CN(C)S(=O)(=O)c2ccc(F)cc2)Oc2ncc(-c3cccc(F)c3)cc2C1=O | -1 | 13[16.7 µM]
C[C@H](CO)N1C[C@H](C)[C@@H](CN(C)Cc2ccccn2)Oc2cc(-c3cccnc3)ccc2S1(=O)=O | 16 | -16[16.7 µM]
